Screening results as filed in PubChem.
Beta apoptosis = blocks beta cell apoptosis | protection from apoptosis, % (concentration not given with the values) | hit rate 0.8% among 300,000 | INS-1E cytokine-induced death, ATP luminescence, 48 h; percent of positive-control rescue, neutral wells zero;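 active means all replicates at 75% or more, or half of them and the mean; inconclusive means half reach 75% but not the mean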;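 further: 0% = cytokine-treated negative control wells and 100% = positive control rescue; higher means more ATP so stronger rescue from cytokine killing; wells of about 40 µL received 100 nL stock; the first replicate is given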
ALR H2O2 inh = inhibitors of human sulfhydryl oxidase ALR; P55789; AID 485317; hit rate 3.8% among 290,000; purified ALR, DTT oxidation, H2O2 HRP-luminol luminescence; inhibition, % (concentration not given with the values);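 active means mean and each replicate at 75% or more; inconclusive means only one of the two met; inactive means neither met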;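 further: stock transfer was 7.5 nL into about 7.5 µL; 0% = neutral wells and 100% = wells with inactivated enzyme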
Target sequence (P55789 whole entry, looked up): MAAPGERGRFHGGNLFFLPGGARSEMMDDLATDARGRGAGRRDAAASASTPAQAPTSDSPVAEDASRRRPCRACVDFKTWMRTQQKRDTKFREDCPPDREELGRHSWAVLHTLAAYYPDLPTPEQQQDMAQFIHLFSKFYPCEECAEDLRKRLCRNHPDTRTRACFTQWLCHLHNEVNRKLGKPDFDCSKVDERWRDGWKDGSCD
T cruzi inh = blocks replication of Trypanosoma cruzi. T. cruzi beta-gal in NIH3T3, luminescence, 90 h. inhibition, % (no concentration beside the values). hit rate 1.4% among 300,000. AID 1885;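 active means mean inhibition across valid replicates above about 55%, limit read from the data; inconclusive means mean below that limit but half or more replicates reach it; inactive means mean below it, under half of replicates reach it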;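 further: signal also drops with host cell toxicity which is not excluded here; 0% = plate median of DMSO wells and 100% = zero luminescence signal; higher percent means less beta-gal luminescence so fewer parasites; stock transfer was 50 nL into about 50 µL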
LANA-H2B inh = blocks KSHV LANA binding to histone H2A/H2B | hit rate 0.6% among 320,000 | inhibition, % (test concentration not listed) | Q9QR71 | cell-free LANA-H2A/H2B peptide, fluorescence polarization; in the data active means inhibition mostly above about 10%, no sharp cut-off; inactive means mostly below about 6.7%;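 further: stock transfer was 7.5 nL into about 10 µL; 0% = median of vehicle wells and 100% = median of positive control wells; one replicate is shown; the record names a cut of 25% in any replicate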
B2AR ag = human beta-2 adrenergic receptor agonism by FAP. P07550. Am2.2-beta2AR cells, FAP receptor internalization, flow cytometry; reference of the scale not given here. response, % (test concentration not listed). hit rate 0.43% among 340,000. AID 504454;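 active means response above a set limit, near 3 SD of response in nonfluorescent compounds, cut at about 42% in these data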;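 further: stock transfer was 100 nL into about 11 µL; a reference agonist was the positive control; negative values mostly stem from fluorescent compounds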
Target sequence (P07550 whole entry, looked up): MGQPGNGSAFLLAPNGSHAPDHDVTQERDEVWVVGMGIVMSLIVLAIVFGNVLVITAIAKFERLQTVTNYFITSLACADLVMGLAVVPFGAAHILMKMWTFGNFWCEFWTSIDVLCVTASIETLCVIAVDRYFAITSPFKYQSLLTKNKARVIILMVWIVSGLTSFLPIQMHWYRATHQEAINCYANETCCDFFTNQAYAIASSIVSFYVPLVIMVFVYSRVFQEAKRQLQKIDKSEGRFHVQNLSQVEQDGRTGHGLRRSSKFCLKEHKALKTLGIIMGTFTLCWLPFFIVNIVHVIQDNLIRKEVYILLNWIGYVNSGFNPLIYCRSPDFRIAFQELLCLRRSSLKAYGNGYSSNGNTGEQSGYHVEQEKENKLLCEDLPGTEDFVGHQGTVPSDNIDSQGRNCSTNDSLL
Bfl-1 A1 inh = inhibitors of the anti-apoptotic protein A1, read as caspase activation; MEF A1-2A-BIM cells, Caspase-Glo 3/7 luminescence, 3 h; percent of clofoctol response, vehicle zero; caspase activation, % (concentration not given with the values); hit rate 0.066% among 330,000; AID 2462;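 active means over half of replicate activation scores above 10%, or exactly half above 10 with the replicate mean above 10; inconclusive means replicate mean below 10 yet half the replicates above 10; inactive means over half of replicates below 10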;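 further: wells of about 30 µL received 50 nL stock; many hits fall short of the cut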
Ecoli rRNA inh = inhibitors of bacterial rRNA selective over humanized ribosomes; hit rate 1.6% among 350,000; AID 720706; E. coli WT GFP vs humanized-ribosome RFP mutants, fluorescence, 24 h; stronger effect = lower value; DMSO median 0, no signal -100; GFP signal change (wild-type ribosome), % (no concentration beside the values);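 active means significant combined selectivity score with lowered wild-type GFP, culture density cut under 30%, mutant RFP and density less affected; inactive means any of these conditions unmet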; further: one replicate is shown; some compounds called inactive have numbers as strong as hits
Calb FLC = C. albicans growth modulation with fluconazole. C. albicans CaCi-2 (fluconazole-resistant clinical isolate) + fluconazole, Alamar Blue growth, 48 h. growth inhibition, % (concentration not given with the values). hit rate 0.57% among 300,000. AID 1979;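 active means most replicates above 75%; inconclusive means exactly half above 75%; inactive means most below 75%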;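 further: all wells also contain fluconazole at 8 µg/ml as a sub-toxic cotreatment; 0% = median of DMSO wells and 100% = median of geldanamycin control wells; wells of about 8 µL received 7.5 nL stock; the first replicate is given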
Ecoli rRNA inh OD600 = also measured in Ecoli rRNA inh; calls as there; OD600 change, %; measured here: OD600 growth;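 optical density of the mix in the first replicate; 0 = DMSO median and -100 = no signal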
Ecoli rRNA inh RFP = also measured in Ecoli rRNA inh; calls as there; RFP signal change, %; measured here: RFP humanized mutant strains;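 first replicate; 0 = DMSO median and -100 = no signal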
An asterisk follows results filed as active; ? = inconclusive; . = no result given; & = joins results of further samples. Some of the compounds tested. The share of hits here may be higher or lower than overall.

SMILES	Beta apoptosis	ALR H2O2 inh	T cruzi inh	LANA-H2B inh	B2AR ag	Bfl-1 A1 inh	Ecoli rRNA inh	Ecoli rRNA inh OD600	Ecoli rRNA inh RFP	Calb FLC
CCOc1ccc(NC(=S)N2CCN(C/C=C/c3ccccc3)CC2)cc1	1	-9	12	-1.4	8	0.1	-28*	-21*	-3.7*	9
CCc1ccc(N(CC(=O)NC2CCCCC2)S(=O)(=O)c2c(C)noc2C)cc1	1	45	8	-1.0	-1	0.6	5	-4	7.4	2
COC(=O)c1ccc(NC(=O)CNC(=O)C2CCCCC2)cc1	-5	-8	-4	6.3	8	-1.5	1	3	-0.1	-25
COc1ccc(OC)c(/C=N\NC(=O)c2c(C)nc3cc(C)ccn23)c1	.	7	-10	1.0	12	-0.8	9	3	0.7	-3
O=C1NC(c2ccccc2)(C(F)(F)F)C(=O)N1Cc1cccnc1 (stereo not drawn)	-3	.	10	-3.5	-2	0.3	.	.	.	-1
COc1ccc(OC)c(NC(=O)CSc2nnc(CNC(=O)COc3ccc(Cl)cc3)o2)c1	-5	-2	-1	0.7	-2	4.2	4	9	8.4	-7
CSc1nnc2c(n1)OC(C)=Nc1ccccc1-2	-1	19	-10	3.3	-3	1.1	.	.	.	-21
O=C(NC1CCCC1)c1ccc(CS(=O)(=O)Cc2ccccc2Cl)o1	-1	4	13	-3.9	-5	0.4	6	-2	-1.9	17
CCC1CCCCN1C(=O)c1ccc([N+](=O)[O-])o1 (stereo not drawn)	-3	-22	48	8.1	7	0.7	-12	0	1.5	-5
CN(Cc1cnc2nc(N)nc(N)c2n1)c1ccc(C(=O)N[C@@H](CCC(=O)O)C(=O)O)cc1	5&-5	-23&-5	1	2.1&-4.3	3&1	-1.1&3.5	.	.	.	-7
CCCCOC(=O)c1ccc(N2C(=O)CC(N3CCN(C/C=C/c4ccccc4)CC3)C2=O)cc1 (stereo not drawn)	1	-3	2	-2.6	8	0.1	-6	-3	54	-15
Cc1ccc(-n2c(-c3ccncc3)n[nH]c2=S)c(C)c1	3	59	-6	-4.9	15	-1.2	2	-3	-0.8	12
O=c1[nH]cnc2scc(-c3ccccc3)c12	-2	-2	-7	-0.3	5	-1.6	.	.	.	-4
CCOc1cc(C(=O)NCc2ccc(F)cc2)ccc1OCC(=O)N1CCCCC1	8	1	.	-2.8	-8	1.1	1	0	-1.9	.
Cc1ccccc1OCCn1cc(/C(N)=N/O)c2ccccc21	1	.	4	2.0	10	0.7	-29	-22	17	17
Cc1cc(C)cc(N(C(C)C(=O)NCc2ccc3c(c2)OCO3)S(C)(=O)=O)c1 (stereo not drawn)	-3	-8	8	-1.5	-6	1.2	2	-4	-5.2	-2
Cc1ccc(SCCC(=O)NCc2ccncc2)cc1	1	-12	-8	-14	1	0.1	12	-3	-0.4	-21
COc1nc(NCc2cccnc2)nc(OC)n1	-2	-4	.	3.2	5	-0.7	.	.	.	16
CCCn1c(SCC(=O)N2CCCCC2)nnc1C(C)C	.	2	-23	2.6	-3	-1.0	15	12	0.6	-17
CCOc1ccc(S(=O)(=O)N/N=C(\C)c2ccc(OC)cc2OC)cc1	.	-3	7	-2.0	-3	-0.4	11	8	1.5	2
Cc1cccc(C)c1NC(=O)C1(NC(=O)Cn2cccc([N+](=O)[O-])c2=O)CCCCC1	-4	-6	-29	-3.3	6	1.0	2	4	2.5	0
N#Cc1cc2nc(O)c(O)nc2cc1[N+](=O)[O-]	-2	9	.	6.6	-5	-0.1	9	14	-2.3	.
COc1cc(OC)c(S(=O)(=O)NCc2ccco2)cc1S(=O)(=O)NCc1ccco1	-12	-1	-11	2.9	0	-1.0	.	.	.	0
COc1ccc(-c2cc(-c3cccs3)c(C#N)c(SCC(=O)NCc3ccccc3)n2)cc1	19	1	3	3.7	5	0.6	.	.	.	-6
O=C1c2ccccc2NC(c2ccccc2)N1/N=C/c1ccccc1 (stereo not drawn)	1	4	1	-5.5	4	-1.5	.	.	.	3
CCn1ncc(C(=O)Nc2ccc([N+](=O)[O-])cc2OC)c1C	-10	-22	2	2.5	-3	0.2	.	.	.	2
Cc1ccc(OCc2nc(-c3cccs3)no2)c([N+](=O)[O-])c1	1	.	7	-1.1	-1	-3.9	9	-14	-0.7	0
Cc1cccc(C)c1NC(=O)c1ccc([N+](=O)[O-])s1	10	.	49	-0.1	-2	0.2	.	.	.	-1
COc1cccc(CN2CCN(Cc3cccc(Oc4ccccc4)c3)CC2)c1OC	-7	-12	12	0.0	0	-1.0	-30	-62	-4.2	-11
Cc1ccc(-n2c(C)cc(/C=N/NC(N)=S)c2C)cc1	8	2	65*	5.0	8	0.2	.	.	.	?
CC(C)(C)c1cc(N)n2nc(C(C)(C)C)cc2n1	-4	-9	25	-2.5	-17	-0.3	15	16	0.6	-24
COC(=O)c1ccccc1NC(=O)C1CC(=O)N(c2ccc(C)c(C)c2)C1 (stereo not drawn)	.	.	11	3.7	-5	-0.1	.	.	.	3
CN(C(=O)CSc1nnc(Nc2ccccc2)s1)c1c(N)n(Cc2ccccc2)c(=O)[nH]c1=O	-4	-3	3	-6.2	-6	0.5	.	.	.	3
O=C(NCc1ccccc1C(F)(F)F)c1cccc2c1C(=O)c1ccc(N3CCCCC3)cc1S2(=O)=O	15	-1	.	5.2	7	-0.3	5	6	-5.7	.
Cn1c(SCC(=O)C(C)(C)C)nnc1-c1ccncc1	1	7	6	1.3	0	0.3	.	.	.	-3
CCOC(=O)C1CCCN(C(=O)Cn2nc(CC)n3c(cc4sccc43)c2=O)C1 (stereo not drawn)	2	5	-7	1.9	-12	.	-6	-11	2.7	-2
O=C(CSc1nnc(COc2ccccc2)n1Cc1ccco1)Nc1ccc2c(c1)OCCO2	.	-7	8	3.1	-5	0.6	-15	-12	7.9	-10
Cc1cc[n+](CC2OCc3ccccc3CO2)cc1	-8	-7	-10	0.2	-7	0.7	15	14	3.7	14
N#Cc1c(NC(=O)CN2CCCCC2)sc2c1CCC2	.	24	18	-0.5	8	0.3	.	.	.	-3
Cc1ccc(S(=O)(=O)CC(=O)Nc2ccc(S(=O)(=O)Nc3ccccn3)cc2)cc1	-4	-10	-12	-2.1	1	0.1	4	8	0.8	1
O=C(O)c1ncn(Cc2ccc(Br)cc2)c1C(=O)O	-6	4	-9	1.0	-2	0.9	25	16	0.8	-6
Brc1ccc(-c2nnc(-c3ccco3)o2)cc1	-7	3	-2	3.2	-9	-0.2	.	.	.	18
COc1ccc(CCC(=O)Nc2ccc(Cl)c(S(=O)(=O)N3CCCC3)c2)cc1	-1	-3	-12	-1.0	-4	0.3	-12	5	19	26
CSCCC(NC(=O)c1ccccc1Cl)C(=O)Nc1cccc(S(=O)(=O)N2CCCC2)c1 (stereo not drawn)	-4	-2	9	-8.1	11	-1.3	-6	-8	-0.7	3
CN(C)C=NC(=O)c1cc(C(=O)c2ccccc2)c[nH]1	3	-1	-8	-1.1	-2	-0.8	12	9	0.1	-5
CCCSc1nnc(NC(=O)Nc2ccc(C)cc2)s1	-3	5	8	1.3	-2	0.1	-5	7	-3.9	8
O=C(Nc1ccc2c(c1)OCO2)NC1CCN(Cc2ccccc2)CC1	0	-5	56*	5.6	6	0.1	15	-1	-7.8	0
COc1ccc(CN(C)CC(=O)Nc2cccc3ccccc23)cc1F	0	-5	21	-0.3	1	-0.4	-15	-33	-3.3	-4
Cc1ccc(C)c(S(=O)(=O)N2CCCOC2CNC(=O)C(=O)NCc2ccccc2)c1 (stereo not drawn)	15	0	-13	-2.0	-8	0.3	4	7	0.9	-3
CCOc1ccccc1NC(=O)N1CCCC(c2nc(-c3ccc(C)o3)no2)C1 (stereo not drawn)	-8	2	28	-3.7	-5	0.2	-20	-19	-7.8	?
O=C(Cc1cccs1)NCCN1CCOCC1	-9	-9	-19	-2.6	-3	1.0	18	5	0.3	-1
Cc1ccccc1NC(=O)Cc1nc(COC(=O)CSc2ccccc2)cs1	-5	-4	3	-3.4	0	0.1	9	3	0.8	24
CCOc1ccc(Oc2ccc(C(F)(F)F)cc2NC(=O)C2=COCCO2)cc1	3	.	.	7.6	19	0.1	1	5	-1.2	.
Cc1ccccc1N=C(N)Nc1ccccc1C	-1	.	.	3.7	-5	-2.0	18	10	-2.1	.
Cc1ccc(S(=O)(=O)c2c(C)cc(C)nc2Oc2cccc(C)c2C)cc1	-4	11	.	-13	3	0.8	.	.	.	6
CC(C)(C)C1CCc2onc(C(=O)NCc3ccc(F)cc3)c2C1 (stereo not drawn)	1	-3	-13	4.6	-5	-1.2	.	.	.	6
O=S(=O)(c1ccc(Cl)cc1)N1CCN(C(=S)Nc2ccccc2F)CC1	1	1	6	-8.0	3	-0.3	-21	-24	1.3	-8
O=C(NCCCn1ccnc1)/C(=C/c1cccs1)NC(=O)c1ccco1	-7	-2	-5	-0.5	2	0.1	11	4	-2.0	12
O=C(NNS(=O)(=O)c1ccc2ccccc2c1)C1CCN(Cc2ccccc2)CC1	4	16	12	-0.8	3	0.8	.	.	.	-5
CCOC(=O)C1=C(C)NC(SCC(N)=O)=C(C#N)C1c1cccs1 (stereo not drawn)	-2	20	-4	1.9	-4	-0.3	.	.	.	-2
Next section.
SMILES	Beta apoptosis	ALR H2O2 inh	T cruzi inh	LANA-H2B inh	B2AR ag	Bfl-1 A1 inh	Ecoli rRNA inh	Ecoli rRNA inh OD600	Ecoli rRNA inh RFP	Calb FLC
Cc1cc(C)nc(N2C(=O)CC(C(=O)O)NC2=NCCc2c[nH]c3ccccc23)n1 (stereo not drawn)	1	-13	-10	-0.2	6	0.4	.	.	.	-2
CCOC(=O)Cc1nc(-c2cccc(C(F)(F)F)c2)no1	-4	.	-4	1.8	-8	1.1	-4	-1	-3.2	2
O=C(Nc1ccc(S(=O)(=O)NC2=NCCCCC2)cc1)c1cccc(S(=O)(=O)N2CCOCC2)c1	3	1	.	6.0	0	-0.2	0	-2	-0.1	.
COc1nc(Oc2ccc(=O)n(C)n2)nc(N(C)C)n1	-6	-9	-12	-3.8	-2	0.2	.	.	.	-1
CCN1CCN(c2ccc(S(=O)(=O)N3CCCCC3)cc2NC(=O)/C=C/c2ccc([N+](=O)[O-])cc2)CC1	4	-17	50	3.5	15	0.2	-4	3	-0.2	-3
Fc1ccc(Nc2nc(N3CCOCC3)c3ccccc3n2)cc1	19	93*	39	3.2	-6	0.2	.	.	.	-2
CC1CCN(S(=O)(=O)c2cn(CC(=O)Nc3ccc(C#N)cc3)cn2)CC1	2	0	-15	-3.1	-2	0.0	10	6	2.6	6
CCOC(=O)C1CCN(S(=O)(=O)c2ccc3c(c2)CC(=O)N3)CC1	-6	-7	-1	0.3	7	-0.4	-9	8	-1.5	4
COc1ccccc1NC(=O)CSC1CC(=O)N(c2ccc3c(c2)OCO3)C1=O (stereo not drawn)	-10	100*	18	7.7	1	-0.4	.	.	.	8
